Beta cell apopt = inhibitors of cytokine-induced beta cell apoptosis, primary screen, luminescence. INS-1E cytokine-induced death, ATP luminescence, 48 h; percent of positive-control rescue, neutral wells zero. protection from apoptosis, % (test concentration not listed). actives 0.8% (n = 300,000);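 active = all replicates at 75% or more, or half of them and the mean; inconclusive = half reach 75% but not the mean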;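 also: 0% = cytokine-treated negative control wells and 100% = positive control rescue; higher means more ATP so stronger rescue from cytokine killing; wells of about 40 µL received 100 nL stock; the first replicate is given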
Vif A3G = inhibitors of Vif binding to APOBEC3G peptide, primary screen, biochemical, TR-FRET, GST-Vif 1-94, biotin-A3G peptide, dose response retest (AID 1117319); Virion infectivity factor (Human immunodeficiency virus type 1 group M subtype B (isolate …; TR-FRET GST-Vif / biotin-A3G peptide binding; higher % means a stronger effect; test concentration not given here; strong numbers were not always called active; inhibition, %, or IC50 in µM where a hit was titrated; actives 0.57% (n = 260,000);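 active = above the screen mean plus three standard deviations and confirmed in dose response; inconclusive = results disagree or hit not tested in dose response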;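 also: Vif residues 1-94 fused to GST binding biotinylated APOBEC3G peptide 110-148; 0% = full assay without inhibitor and 100% = GST in place of GST-Vif; retest series ran down from 100 µM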
T cruzi inh = inhibitors of intracellular T. cruzi growth, primary screen, luminescence, NIH3T3 host cells; T. cruzi beta-gal in NIH3T3, 90 h; inhibition, % (test concentration not listed); actives 1.4% (n = 300,000); AID 1885, 2009;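 active = mean inhibition across valid replicates above about 55%, limit read from the data; inconclusive = mean below that limit but half or more replicates reach it; inactive = mean below it, under half of replicates reach it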;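 also: signal also drops with host cell toxicity which is not excluded here; 0% = plate median of DMSO wells and 100% = zero luminescence signal; higher percent means less beta-gal luminescence so fewer parasites; stock transfer was 50 nL into about 50 µL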
MLL AF4-AF9 inh = inhibitors of AF4 peptide binding to AF9, primary screen, biochemical, AlphaScreen, biotin-AF4 peptide, FLAG-AF9, single point | inhibition, % at 10 µM | actives 0.47% (n = 350,000) | Protein AF-9 (Homo sapiens), P42568;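 active = every replicate reaching a set inhibition limit, whatever the replicate mean, cut at about 25% in these data; inconclusive = mean inhibition reaches that limit but some replicates miss it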;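 also: 0% = plate neutral control median and 100% = total signal loss; the record names both 10 and 1 µM as test concentration; the first replicate is given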
Target sequence (P42568 whole entry, looked up): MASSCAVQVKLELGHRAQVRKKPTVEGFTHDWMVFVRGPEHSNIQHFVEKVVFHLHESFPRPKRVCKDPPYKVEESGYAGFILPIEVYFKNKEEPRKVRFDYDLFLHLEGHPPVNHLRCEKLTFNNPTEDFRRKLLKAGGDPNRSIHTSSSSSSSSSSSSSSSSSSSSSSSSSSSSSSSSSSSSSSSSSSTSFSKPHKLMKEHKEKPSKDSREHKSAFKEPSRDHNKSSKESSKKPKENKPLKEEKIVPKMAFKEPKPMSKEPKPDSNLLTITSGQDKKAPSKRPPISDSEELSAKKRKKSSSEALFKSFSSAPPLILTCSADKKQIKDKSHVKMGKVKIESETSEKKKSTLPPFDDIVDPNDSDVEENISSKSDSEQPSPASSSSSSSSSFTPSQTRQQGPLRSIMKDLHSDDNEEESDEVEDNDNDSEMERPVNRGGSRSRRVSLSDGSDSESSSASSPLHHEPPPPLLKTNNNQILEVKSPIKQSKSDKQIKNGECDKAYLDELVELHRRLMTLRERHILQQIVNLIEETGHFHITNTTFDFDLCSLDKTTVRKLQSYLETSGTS
Bfl-1 A1 inh = caspase 3/7 activation in MEF A1-2A-BIM cells, primary screen, A1 inhibitor project, cell-based, luminescence, HTS; Caspase-Glo 3/7 luminescence, 3 h; percent of clofoctol response, vehicle zero; caspase activation, % (test concentration not listed); actives 0.066% (n = 330,000);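 active = over half of replicate activation scores above 10%, or exactly half above 10 with the replicate mean above 10; inconclusive = replicate mean below 10 yet half the replicates above 10; inactive = over half of replicates below 10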;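 also: wells of about 30 µL received 50 nL stock; many hits fall short of the cut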
Ecoli rRNA inh = reduced GFP signal of wild-type E. coli, primary screen, bacterial rRNA inhibitor project, GFP/RFP fluorescence, OD600, single point; E. coli WT GFP vs humanized-ribosome RFP mutants, 24 h; stronger effect = lower value; DMSO median 0, no signal -100; actives 1.6% (n = 350,000); GFP signal change (wild-type ribosome), % (no concentration beside the values);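 active = significant combined selectivity score with lowered wild-type GFP, culture density cut under 30%, mutant RFP and density less affected; inactive = any of these conditions unmet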; also: one replicate is shown; some compounds called inactive have numbers as strong as hits
RanGTP-Imp inh = inhibitors of RanGTP-importin-beta interaction, primary screen, biochemical, FRET, CFP-Ran, YFP-importin-beta, homogeneous; Ran GTPase (GTP-bound) - importin-beta complex; cell-free CFP-Ran/YFP-importin-beta FRET ratio; inhibition, % (concentration not given with the values); actives 1.1% (n = 300,000);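 active = most replicates above 15%; inconclusive = exactly half above 15%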;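 also: 0% = DMSO wells and 100% = Ran loaded with GDP instead of GTP; wells of about 40 µL received 100 nL stock; the first replicate is given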
Calb FLC = C. albicans growth inhibition with fluconazole, primary screen, CaCi-2 strain, Alamar Blue fluorescence. C. albicans CaCi-2 (fluconazole-resistant clinical isolate) + fluconazole, 48 h. growth inhibition, % (test concentration not listed). actives 0.57% (n = 300,000). AID 1979, 2009;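 active = most replicates above 75%; inconclusive = exactly half above 75%; inactive = most below 75%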;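 also: all wells also contain fluconazole at 8 µg/ml as a sub-toxic cotreatment; 0% = median of DMSO wells and 100% = median of geldanamycin control wells; wells of about 8 µL received 7.5 nL stock; the first replicate is given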
Ecoli rRNA inh OD600 = second read-out of Ecoli rRNA inh, no call of its own (marks repeat the call); OD600 change, %; measured here: OD600 growth;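 optical density of the mix in the first replicate; 0 = DMSO median and -100 = no signal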
Ecoli rRNA inh RFP = also measured in Ecoli rRNA inh; calls as there; RFP signal change, %; measured here: RFP humanized mutant strains;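 first replicate; 0 = DMSO median and -100 = no signal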
An asterisk follows results filed as active; ? = inconclusive; nt = no result given; & = joins results of further samples.

Results follow in this order: Beta cell apopt, Vif A3G, T cruzi inh, MLL AF4-AF9 inh, Bfl-1 A1 inh, Ecoli rRNA inh, Ecoli rRNA inh OD600, Ecoli rRNA inh RFP, RanGTP-Imp inh, Calb FLC
COc1ccc(-n2ncc3c(N4CCCCC4)ncnc32)cc1
  14, 10%, 3, nt, -7.2, nt, nt, nt, -0.5, 7
O=C(c1ccco1)N1CCN(C(=O)c2ccc(CS(=O)c3ccc(F)cc3)o2)CC1 (stereo not given)
  -4, nt, -3, 1.0, 0.3, 1, 1, -3.5, 0.2, -3
CC(C)C(=O)Nc1nnc(SCC(=O)Nc2ccc3c(c2)OCO3)s1
  0, nt, 8, nt, -1.3, nt, nt, nt, -2.9, 36
N#CCCN(Cc1ccccc1)C(=O)Nc1ccc(F)cc1
  -10, -5%, -4, -0.2, 1.1, 9, 8, -1.2, 2.1, 1
C/C(=N\OC(=O)c1cccc(C)c1)c1sc(-c2ccccc2)nc1C
  0, 4%, -7, nt, -10, nt, nt, nt, -0.3, -2
COCCNC(=S)N(CCc1c(C)[nH]c2ccc(F)cc12)Cc1cccnc1
  -2, -4%, 48, 12, 0.3, -18, -20, -3.8, 0.5, nt
Cc1nc(SCC(=O)N2CCN(c3ccccc3)CC2)n[nH]1
  nt, nt, -2, 0.8, 0.2, 5, 3, 0.8, -0.9, 0
Cc1noc(C)c1C(=O)OCC(=O)NCCC1=CCCCC1
  nt, 21%, -1, nt, -0.1, nt, nt, nt, 3.9, ?
CCCCc1c(C)nc(N)[nH]c1=O
  -9, 1%, 14, nt, 0.5, nt, nt, nt, -2.2, -2
O=C(NCCCCc1ccccc1)c1cc([N+](=O)[O-])cc([N+](=O)[O-])c1
  0, -1%, 63*, -0.6, 0.2, -13, -10, -0.9, -3.8, -8
CC(C)(C)NC(=O)C1CC(=O)N(CCc2ccc(F)cc2)C1 (stereo not given)
  -5, nt, 0, -0.8, 1.0, 8, 6, -1.1, 0.3, -4
O=c1n(CCCN2CCN(c3cccc(Cl)c3)CC2)nc2ccccn12
  -9, 10%, -5, -0.3&3.6, 0.4, nt, nt, nt, -0.8, nt
Cc1cc(C)c2c(NC(N)=S)n[nH]c2n1
  -5, 0%, 3, 0.2, 0.6, 4, -4, -3.2, 7.7, 3
COc1cccc2cc(C(=O)N3CCCCC3C)c(=O)oc12 (stereo not given)
  -7, -9%, 7, nt, 1.5, nt, nt, nt, 2.7, 2
Cn1c(CN2CCCCC2)nc2cc(NC(=O)c3cccs3)ccc21
  nt, 3%, 9, nt, -1.2, nt, nt, nt, 0.9, -17

An excerpt from above in order of their number in RanGTP-Imp inh, falling:
SMILES,RanGTP-Imp inh
Cc1noc(C)c1C(=O)OCC(=O)NCCC1=CCCCC1,3.9
COCCNC(=S)N(CCc1c(C)[nH]c2ccc(F)cc12)Cc1cccnc1,0.5
CC(C)(C)NC(=O)C1CC(=O)N(CCc2ccc(F)cc2)C1 (stereo not given),0.3

Next structures follow:
Results follow in this order: Beta cell apopt, Vif A3G, T cruzi inh, MLL AF4-AF9 inh, Bfl-1 A1 inh, Ecoli rRNA inh, Ecoli rRNA inh OD600, Ecoli rRNA inh RFP, RanGTP-Imp inh, Calb FLC
O=C(Nc1cccc(Cl)c1)Nc1nnc(CSCCOc2ccc(Cl)cc2)s1
  139*, nt, 38, nt, 1.3, nt, nt, nt, 0.2, 12
CC(C)n1c(SCC(=O)NCc2ccco2)nc2c1c(=O)n(C)c(=O)n2C
  nt, 7%, -10, nt, 0.2, nt, nt, nt, 4.2, -8
COc1ccc(NC(=O)COc2ccc(-c3nn(C)c(=O)c4ccccc34)cc2)cc1
  4, nt, 19, -1.6, -0.4, 3, 8, 2.1, 2.6, 2
COc1c(Cl)ccc(Cl)c1C(=O)NCc1ccco1
  2, -3%, -6, -1.8, -0.9, 3, 0, -0.3, 2.5, -2
COC(=O)c1cc(C)sc1NC(=O)CSc1ncccn1
  8, -2%, -4, -3.8, -0.6, -11, -15, -1.7, 1.3, 1
Cc1nn(Cc2ccc(C(=O)Nc3nccs3)cc2)c(C)c1Cl
  0, 30%, -50, nt, 0.7, nt, nt, nt, 1.0, -11
COc1cnn(-c2ccc(Br)cc2)c(=O)c1SCc1ccccc1
  -2, nt, -10, -4.1, 0.0, -10, -13, -5.5, 4.1, 4
CCc1nc2ccccc2c(C(=O)OCC(=O)Nc2ccc(NC(C)=O)cc2)c1C
  3, nt, nt, -0.8, -0.9, -37, -37, -6.7, nt, nt
O=C1CC[C@@H](O)CCN1CC[C@H](Sc1ccc(Br)cc1)c1ccccc1
  -1, nt, nt, -2.8, -0.7, -41, -73, -15, nt, nt
O=C(NCCCN1CCN(CCCNC(=O)c2ccc3c(c2)OCO3)CC1)c1ccc2c(c1)OCO2
  -5, ?, -9, nt, 0.1, nt, nt, nt, -3.8, -9
CCOC(=O)c1cnn2c(C)cc(-c3ccc(F)cc3)nc12
  -1, -1%, 13, nt, -0.4, nt, nt, nt, 3.6, -8
O/N=C(\c1ccc2c(c1)OCCO2)C1CCCCC1
  -6, -2%, 0, nt, -1.0, nt, nt, nt, -2.2, 0
O=C(NNC(=S)NCc1ccco1)c1ccc(Cl)s1
  5, -2%, -26, nt, -0.4, nt, nt, nt, -1.8, 6
CSCCC(C(=O)Nc1ccc2c(c1)OCO2)N1C(=O)c2ccccc2C1=O (stereo not given)
  -6, -4%, -16, nt, -0.2, nt, nt, nt, 0.1, -8
Cc1cccc(C)c1NC(=O)CCS(=O)(=O)c1cccc2nonc12
  -4, nt, 19, -0.6, 0.2, 1, 3, -0.4, 6.3, -3
CCN1CCN(CCCNC(=O)c2ccc3c(c2)NC(=O)c2ccccc2S3)CC1
  -6, 76%, -5, 1.7, 0.4, 8, 5, -0.7, 5.7, 0
COc1ccc(OC)c(NC(=O)c2ccccc2NC(=O)c2ccco2)c1
  5, 8%, -13, 6.1, -0.2, -14, -11, 4.8, 1.5, -49
CC(C)(C)c1ccc(C(=O)Oc2ccc3c(c2)OCC3=O)cc1
  2, 37%, 2, nt, -0.2, nt, nt, nt, ?, -7
Clc1ccccc1OCc1nn2c(-c3ccncc3)nnc2s1
  -3, 8%, 8, nt, 0.5, nt, nt, nt, -0.8, 15
Cc1cccc2c1cnn2C(=O)CCC(=O)NC1CCCCC1
  1, nt, -6, -4.6, -0.4, -7, -1, -5.6, 1.1, -7
COc1ccc2c(C)cc(SC3CCOC3=O)nc2c1 (stereo not given)
  -6, nt, -2, -4.7, -0.4, -9, -10, -2.3, -1.5, -3
CCOC(=O)/C(=C\Nc1ccccc1C(F)(F)F)Sc1ncc(C(F)(F)F)cc1Cl
  9, 5%, 6, nt, 0.3, nt, nt, nt, -0.4, 7
COc1ccc(OC)c(-n2c(-c3ccn[nH]3)n[nH]c2=S)c1
  nt, -8%, -5, nt, 0.6, 16, 2, 2.6, 1.7, -8
CCCS(=O)(=O)N1CCC(C(=O)N2CCN(Cc3ccccc3)CC2)CC1
  1, 4%, 0, nt, 0.6, nt, nt, nt, -2.5, -3
COc1ccc(-n2cnnc2SCC(=O)Nc2cccc(S(=O)(=O)N3CCCCC3)c2)cc1
  2, 1%, 7, -9.7, 0.0, 8, 8, -2.4, 3.4, -7
Cc1oc(-c2ccc(Cl)cc2)nc1CS(=O)CC(=O)NCCN1CCCCCC1 (stereo not given)
  -5, -3%, 16, 13, -0.5, 0, -8, 3.7, 0.6, 16
COc1ccc(NC(=O)Nc2cccc3c2O[C@H](CN(C)C(=O)NC(C)C)[C@@H](C)CN([C@H](C)CO)C3=O)cc1
  -2, nt, nt, -2.4&1.3, -0.2, 1&-2, -1&8, 0.3&-8.5, nt, nt
CC(=O)N1CCc2cc(S(=O)(=O)N3CCc4ccccc4C3)ccc21
  -1, -2%, 30, nt, -0.1, nt, nt, nt, ?, 13
Cc1cc(O)c(C(=O)/C=C/c2ccccc2)c(=O)o1
  6, 5%, -11, 6.9, -1.7, 3, 4, -0.1, 6.4, -4
CS(=O)(=O)c1ccc2nc(NC(=O)C3=NN(c4ccccc4)C(=O)CC3)sc2c1
  -1, 22%, -10, 2.2, 0.5, -5, -1, 0.0, -1.8, -7
COCCn1c(SCc2cc(C(C)=O)ccc2OC)nc2cc(Cl)ccc2c1=O
  4, -89%, 14, nt, 0.1, nt, nt, nt, 1.7, -38
C/C(N)=C(/C#N)C(=O)COC(=O)C1Cc2ccccc2CN1S(C)(=O)=O (stereo not given)
  5, 8%&-10%, -3, -3.4, -0.1, -1, -2, -1.9, -2.2, -14
O=C(NC1CCN(S(=O)(=O)c2ccccc2)CC1)c1ccccc1
  -5, nt, -5, -4.2, 0.1, 7, 10, 1.0, 3.8, -2
O=C(O)CNS(=O)(=O)c1cc(Cl)c(Cl)cc1Cl
  4, 9%, -22, nt, 0.7, nt, nt, nt, 1.8, -15
O=C(CO/N=C/c1ccccc1OC(F)F)NCc1ccco1
  -6, 2%, -1, -11, 0.0, 1, -6, -1.5, 12, 0
COC(Cn1c(-c2cccc(S(=O)(=O)N(C)C)c2)n[nH]c1=S)OC
  -3, 4%, -12, -5.5, 1.2, 8, 2, 0.4, -4.5, 3
Cc1cc(NC(=O)c2cc(CC(C)C)on2)no1
  -4, 1%, -16, -11, -0.4, -3, 1, -4.1, -0.6, 0
O=C(NN1C(=O)C2CC=C(Cl)CC2C1=O)c1ccncc1 (stereo not given)
  1, nt, -1, -2.6, 0.1, 16, 11, 6.8, 0.3, 1
CCOC(=O)c1c(NC(=O)N/N=C/c2ccccc2OCC)sc(C(C)=O)c1C
  nt, nt, 68*, 0.1, nt, 4, 17, -0.7, 2.8, 1
COC(=O)c1c(NC(=O)C2CCCCC2C(=O)O)sc2c1CCCCC2 (stereo not given)
  -9, -12%, 2, -1.2, 0.9, -47, -68, -19, -0.3, 60

Compound profiles, as listed above. Order of values: Beta cell apopt, Vif A3G, T cruzi inh, MLL AF4-AF9 inh, Bfl-1 A1 inh, Ecoli rRNA inh, Ecoli rRNA inh OD600, Ecoli rRNA inh RFP, RanGTP-Imp inh, Calb FLC
COC(=O)c1c(NC(=O)C2CCCCC2C(=O)O)sc2c1CCCCC2 (stereo not given) is listed as -9, -12%, 2, -1.2, 0.9, -47, -68, -19, -0.3, 60
CCOC(=O)c1c(NC(=O)N/N=C/c2ccccc2OCC)sc(C(C)=O)c1C is listed as nt, nt, 68*, 0.1, nt, 4, 17, -0.7, 2.8, 1

This is a subset; the hit share may differ from the screen's.
